High-throughput results as filed in PubChem.
Hsc70 ATP site – Hsc70 inhibitors, probe displacement, primary screen, biochemical, fluorescence polarization (AID 568). Heat shock cognate 71 kDa protein (Homo sapiens). Hsc70 fluorescence polarization, probe displacement; higher % means a stronger effect; strong numbers were not always called active. displacement, % at 20 µM, or IC50 in µM where a hit was titrated. 83,000 tested, under 10 active;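 active = displacement above 50% without optical interference and an IC50 on retest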;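 also: ATPase domain with a fluorescein-tagged ATP probe; 0% = vehicle and 100% = excess ADP; read after one hour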
MT1-MMP reporter – inhibitors of MT1-MMP promoter transcription, cell-based, luciferase reporter, luminescence (AID 618); MT1-MMP promoter luciferase reporter cells, luminescence; calls from a first round at 10 µM; hits with a dose series show EC50 in µM; 0.62% of 87,000 active;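 active = over half of the reporter light lost at 10 µM or EC50 under 50 µM; inactive = the rest and hits that failed the dose series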;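 also: actives suppress MT1-MMP promoter-driven transcription so potencies describe inhibitors; HT1080 fibrosarcoma cells; overnight exposure; toxic or luciferase-blocking compounds were not removed from the actives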
WNV NS2B-NS3 inh – inhibitors of WNV NS2B-NS3 protease, primary screen, biochemical, fluorogenic substrate; Genome polyprotein (West Nile virus), P06935; fluorogenic substrate Ex360/Em465; active compounds read low; z-score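 (tested at a level between 10 and 100 µM)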; 0.18% of 65,000 active; AID 577, 2007;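 active = z-score at -3 or under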;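 also: score is relative to mean and spread of the compound wells of a plate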
Target sequence (P06935 1371-1501 limits assumed): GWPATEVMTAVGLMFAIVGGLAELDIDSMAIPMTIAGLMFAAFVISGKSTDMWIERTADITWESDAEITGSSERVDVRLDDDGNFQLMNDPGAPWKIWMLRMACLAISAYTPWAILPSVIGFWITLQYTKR
Target sequence (P06935 1502-1679 limits assumed): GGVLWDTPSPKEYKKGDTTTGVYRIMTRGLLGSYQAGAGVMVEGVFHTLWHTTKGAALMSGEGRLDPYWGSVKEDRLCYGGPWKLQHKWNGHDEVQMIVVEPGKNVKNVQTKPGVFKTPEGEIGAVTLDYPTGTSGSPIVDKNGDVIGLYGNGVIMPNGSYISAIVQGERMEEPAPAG
* = called active by the depositor; i = inactive; x = not tested or not shown; + = active, no number.

Under each structure – Hsc70 ATP site	MT1-MMP reporter	WNV NS2B-NS3 inh
- CCOC(=O)c1sc(NC(=O)CCN2CCOCC2)c(C(=O)OCC)c1C
    5.7%	i	-0.62
- CS(=O)(=O)Nn1cnc2ccccc2c1=O
    -3.7%	i	1.3
- COc1ccc2nc(C)cc(N3CCOCC3)c2c1
    1.3%	i	0.06
- COc1ccccc1Nc1nc(N)nc(CSc2nncn2C)n1
    6.4%	i	2.5
- O=C(c1ccccc1)c1cccc(NC(=O)c2ccco2)c1
    3.0%	i	-0.19
- CCCC(=O)C1=C(O)C(C(=O)OC)C(C)(C)CC1=Nc1ccc(N)cc1 (stereo not given)
    -0.2%	i	x
- Cc1cc(C)cc(N2CCCn3c2nc2c3c(=O)n(CC(=O)OCc3ccccc3)c(=O)n2C)c1
    2.5%	i	0.48
- Cc1ccc(C2Nc3ccccc3C(=O)N2Cc2ccco2)cc1 (stereo not given)
    2.8%	i	0.73
- C=CCc1cccc2cc(C(=O)N(C)C)c(=O)oc12
    6.7%	i	-0.48
- O=C(NCc1ccccc1F)C1CCCN(C(=O)NC2CCCCC2)C1 (stereo not given)
    1.9%	i	1.4
- Cc1nnc(SCCn2c(N(C)Cc3ccccc3)nc3c2c(=O)[nH]c(=O)n3C)s1
    0.7%	i	0.1
- Cc1cc(NC(=O)CCc2ccc(C)o2)no1
    6.3%	i	-0.44
- CN(C)c1ccc(O)c2c1CC1CC3[C@@H](N(C)C)C(=O)C(C(N)=O)=C(O)[C@]3(O)C(=O)C1=C2O (stereo not given in full)
    -0.9%	i	0.8
- CN(Cc1cccs1)C(=O)COc1cccc(-n2cnnn2)c1
    -3.8%	i	0.17
- COC(=O)c1cccc(NC(=O)CSc2nnnn2C)c1
    -6.2%	i	-0.86
- CN1CCN(C(=O)c2cccc(COc3cc(Cl)ccc3Cl)c2)CC1
    -2.0%	i	0.16
- O=c1ccc(S(=O)(=O)N2CCC(Cc3ccccc3)CC2)c[nH]1
    -0.8%	i	-0.36
- CCN=C1SC(CC(=O)NC(C)C)C(=O)N1CC (stereo not given)
    -3.4%	i	x
- Fc1ccc(-c2nnc(NC3=NCCCCC3)o2)cc1
    -1.7%	+	0.86
- COc1ccc2[nH]c(=O)c(CN(C(=O)c3ccncc3)C(C)(C)C)cc2c1
    -3.2%	i	0.99

The closing 5 entries of the part above open the next one:
Under each structure – Hsc70 ATP site	MT1-MMP reporter	WNV NS2B-NS3 inh
- CN1CCN(C(=O)c2cccc(COc3cc(Cl)ccc3Cl)c2)CC1
    -2.0%	i	0.16
- O=c1ccc(S(=O)(=O)N2CCC(Cc3ccccc3)CC2)c[nH]1
    -0.8%	i	-0.36
- CCN=C1SC(CC(=O)NC(C)C)C(=O)N1CC (stereo not given)
    -3.4%	i	x
- Fc1ccc(-c2nnc(NC3=NCCCCC3)o2)cc1
    -1.7%	+	0.86
- COc1ccc2[nH]c(=O)c(CN(C(=O)c3ccncc3)C(C)(C)C)cc2c1
    -3.2%	i	0.99
- CCOC(=O)c1c(NC(=O)c2nn(CC)cc2Br)c(C#N)cn1-c1ccccc1
    -6.1%	i	-0.39
- CCOC(=O)c1sc2nc(CC(=O)OC)nc(N3CCN(c4ccccn4)CC3)c2c1C
    -3.1%	i	1.2
- COc1ccc(CCNC(=O)CSc2nc(N)c3c(C)c(C)oc3n2)cc1OC
    -3.2%	i	0.64
- COc1ccc(/C=C/C2=NC(=C\N(C)C)/C(=O)O2)cc1
    -0.1%	i	-0.4
- O=C(NC1CCCCC1)C1CCN(c2nccs2)CC1
    -9.5%	i	0.51
- O=C(c1ccccc1)c1nnc(-c2ccncc2)o1
    -1.6%	i	0.84
- Cc1ccc(C(=O)Nc2ccc(S(=O)(=O)N3CCc4ccccc4C3)cc2)o1
    0.9%	i	1.4
- COc1ccccc1N1CCN(C(=O)/C=C/c2ccccc2)CC1
    1.7%	i	x
- CCN(CC)c1nc2n(c(=O)n1)CCN2CC
    4.1%	i	0.14
- N#CCSc1nc2[nH]ncc2c(=O)n1-c1ccccc1Br
    -2.0%	i	-0.28
- CCOc1ccc2nc(NC(=O)c3ccoc3C)sc2c1
    -0.4%	0.97µM*	1.3
- CCOC(=O)C1CCN(S(=O)(=O)c2ccc(OC)c(OC)c2)CC1
    6.1%	i	x
- O=C(OCC(=O)N1CCN(C(=O)c2ccco2)CC1)c1cn(-c2ccccc2)nc1-c1ccccc1
    4.6%	i	-0.52
- N=c1c(C(=O)NCc2ccc3c(c2)OCO3)cc2c(=O)n3ccccc3nc2n1Cc1cccnc1
    4.7%	i	-1
- COc1ccc(C2C(=O)N(C3CCCCC3)CC(=O)N2C2CCCC2)cc1 (stereo not given)
    -0.6%	i	-1.1
- Cc1ccc2nsnc2c1NC(=O)c1ccc2c(c1)OCCO2
    -2.4%	i	x
- Cn1nnnc1SCC(=O)Nc1ccccn1
    2.7%	i	x
- O=S(=O)(N1CCCCC1)N1CCN(S(=O)(=O)N2CCCCC2)CC1
    7.0%	i	-0.72
- COc1ccc2nc3oc(C(=O)N4CCCCC4)cc3cc2c1
    3.3%	i	0.14
- Cc1ncoc1C(=O)Nc1ccc(Oc2ccccc2)cc1
    3.1%	i	1.3
- O=S(=O)(c1ccc(F)c(Cl)c1)N1CCCC1
    4.0%	i	-0.45
- O=C(NCc1ccco1)C1CC(=O)N(c2ccc(F)cc2)C1 (stereo not given)
    6.4%	i	-0.29
- Cc1ccc(CC(CC(=O)O)C(=O)NC2CCCCC2)cc1 (stereo not given)
    -2.2%	i	0.25
- Cc1ccc(S(=O)(=O)N2CCN(S(=O)(=O)N3CCOCC3)CC2)cc1
    0.2%	i	x
- Cc1sc2ncn3ncnc3c2c1C
    -0.7%	i	0.82
- CCN1C(=O)/C(=C2/C=CC=CN2C)OC1=S
    8.2%	i	-1.8
- COc1cccc(/C=N/NC(N)=S)c1OS(=O)(=O)c1ccccc1
    0.1%	i	x
- O=C(O)C1CCCCC1C(=O)Nc1ccccc1F (stereo not given)
    0.9%	i	1.8
- O=C(O)CCC(=O)N(Cc1ccco1)c1nc(-c2ccccc2)cs1
    -5.5%	i	-0.77
- CCCCCCCCOc1ccc(C2OC34CCCCC3C(C#N)(C#N)C2(C#N)C(=N)O4)cc1 (stereo not given)
    1.5%	i	x
- Cc1ccnc(NC(=O)C2CCN(S(=O)(=O)c3cccc4nsnc34)CC2)c1
    -3.0%	i	-0.28
- FC(F)(F)C1=CC(c2ccc(Br)cc2)=NCCN1
    -3.3%	i	x
- COc1ccc(NC(=O)C2CC(=O)NC(Nc3cccc(C)c3)=N2)cc1 (stereo not given)
    3.9%	i	-1.1
- COc1ccc(S(=O)(=O)N(C)CC(=O)N2CCOCC2)cc1
    -0.1%	i	-0.45
- CS(=O)(=O)N1CCc2cc(-c3csc(NC(=O)C(c4ccccc4)c4ccccc4)n3)ccc21
    -7.9%	i	x
- CCOc1cc(C)c(Cl)cc1S(=O)(=O)n1cnc2ccccc21
    3.0%	i	-0.05
- CC(=O)c1cc(C#N)c(SCc2ccncc2)nc1C
    -4.5%	i	0.34
- O=C(CN1CCOCC1)Nc1ccc(Oc2ccc(NC(=O)CN3CCOCC3)cc2)cc1
    6.8%	i	-0.26
- Nc1nc(CN2CCCCC2)cs1
    2.2%	i	-1
- Cc1nnc(SCc2cc(=O)[nH]c(Nc3nc(C)c4ccccc4n3)n2)s1
    -0.1%	i	-0.7
- CCOC(=O)c1c(=O)n(O)c2ccc(OC)cc2[n+]1[O-]
    26%	i	x
- CC(=O)NC12CC3CC(C)(C1)CC(NC(C)=O)(C3)C2
    5.3%	i	1
- COc1ccccc1-n1cc(C(=O)NCC(=O)N2CCN(c3ccccn3)CC2)c2ccccc2c1=O
    -10%	i	-1.6
- COc1ccc(NCc2cc3cc(OC)ccc3[nH]c2=O)cc1
    -0.2%	i	0.6
- Cc1cccn2c(=O)c3cc(C(=O)NCc4ccccc4)c(=N)n(CCCN4CCOCC4)c3nc12
    1.0%	i	0.25
- Cc1ccn2cc(CSc3ccccc3N)nc2c1
    1.6%	i	x
- Cc1ccc2c(c1)c1c(n2CC(O)CNC(CO)(CO)CO)CCCC1 (stereo not given)
    12%	i	-0.39
- Cn1c(=O)c2[nH]c(N3CCOCC3)nc2n(-c2ccccc2)c1=O
    3.4%	i	-0.7
- Nc1ccc(-c2nc3ccc(-c4nc5ccccc5o4)cc3[nH]2)cc1
    -17%	i	0.61
- COc1ccccc1OCc1nnc(SCC(=O)c2cc(Cl)ccc2OC)o1
    5.8%	i	-0.4
- CCC(=O)Nc1ccc(Nc2ccccc2)cc1
    3.4%	i	-0.6
- CCCCc1ccc(CC2S/C(=C(\C#N)C(=O)N3CCOCC3)N(c3ccccc3)C2=O)cc1 (stereo not given)
    0.7%	i	x
- CCCS(=O)(=O)c1cn2cccc(N)c2c1S(=O)(=O)CCC
    7.8%	i	0.25
- O=C(NCCc1c[nH]c2ccc(Cl)cc12)c1cccnc1
    -4.6%	i	x
- COc1ccc2c(c1)C=CC1(O2)N(CCO)c2ccccc2C1(C)C (stereo not given)
    0.0%	i	0.07
- COc1ccccc1-c1cc(C(=O)Nc2c(F)cc(F)cc2Br)no1
    -7.8%	i	1
- Cn1c(=O)c2c(nc(SCc3cc4c(cc3Cl)OCO4)n2C)n(C)c1=O
    3.9%	i	0.34
- O=C(/C=C/Nc1ccc(F)c(Cl)c1)c1ccco1
    5.0%	i	-0.35
- Nc1c(C(=O)CCC(=O)O)oc2ccc(Cl)cc12
    0.7%	i	-0.63
- COC(=O)c1cccc(NC(=O)Cn2cnc3c2c(=O)n(C)c(=O)n3C)c1
    -0.5%	i	-0.17

Looked up one by one from above:
Under each structure – Hsc70 ATP site	MT1-MMP reporter	WNV NS2B-NS3 inh
- Nc1c(C(=O)CCC(=O)O)oc2ccc(Cl)cc12
    0.7%	i	-0.63
- O=C(O)CCC(=O)N(Cc1ccco1)c1nc(-c2ccccc2)cs1
    -5.5%	i	-0.77

(cont.)
Under each structure – Hsc70 ATP site	MT1-MMP reporter	WNV NS2B-NS3 inh
- COc1ccc(C(N)=O)cc1N
    4.7%	i	-0.07
- NC(=O)COC(=O)c1cc(S(=O)(=O)N2CCOCC2)ccc1N1CCCCC1
    1.0%	i	-0.52
- CCOC(=O)/C(C(N)=NCc1ccco1)=C(/O)c1ccccc1
    1.1%	i	1.7
- Cc1ccc(-c2noc(CSc3nnc(Cc4ccccc4)n3-c3cccc(C)c3)n2)cc1
    9.0%	i	x
- O=C(O)/C=C/c1ccc(O)c(O)c1
    1.0%	i	-0.32
- COc1ccccc1N1CCN(CCCCOc2ccc(F)cc2)CC1
    1.7%	i	1.1
- CCN(c1ccccc1)S(=O)(=O)c1cccc(C(=O)O)c1
    -2.6%	i	-0.86
- COc1ccc(S(=O)(=O)NC2CCCC2)cc1Br
    -2.1%	i	0.59
- O=C(NCC1CCCO1)C1CC(=O)N(c2ccc(F)c(Cl)c2)C1 (stereo not given)
    4.1%	i	0.48
- CNC(=O)CSc1nnnn1-c1cc(C)ccc1C
    3.6%	i	x
- O=C1NC2(CCCCC2)N=C1c1ccc(F)cc1
    0.1%	i	-0.55
- Cc1nn2c(=O)c(NC(=O)c3ccc(F)cc3)cnc2s1
    -0.7%	i	0.22
- COC(=O)N1CCN(c2ccc(OC)cc2)CC1
    1.0%	i	0.66
- CC(C)OCCCNc1ncc2c(n1)CC(c1ccc(N(C)C)cc1)CC2=O (stereo not given)
    -3.2%	i	1.1
- OC1(c2ccc(F)cc2)CCN(Cc2ccccc2)C1 (stereo not given)
    -3.7%	i	-0.09
- COc1ccc(C(=O)c2sc(NC(C)C)nc2N)cc1OC
    -6.1%	i	-1.6
- CCOc1cc(C(=O)NCC2CCCO2)cc(OCC)c1OCC (stereo not given)
    0.9%	i	-0.38
- CCCCC(=O)Nc1nnc(-c2ccc(OC)cc2)s1
    -2.2%	i	x
- COc1ccc(Cc2nc3ccc(S(=O)(=O)N4CCOCC4)cc3[nH]2)cc1
    -7.3%	i	x
- COc1ccc(-c2nnc(-c3cc(OC)c(OC)c(OC)c3)o2)cc1OC
    -0.6%	i	x
- CC(=O)NC(Cc1ccc(F)cc1)C(=O)N1CCN(C(=O)NCc2ccccc2)CC1 (stereo not given)
    -3.8%	i	-0.13
- ON=Cc1cccn1-c1ccccc1
    2.2%	i	-0.66
- c1ccc(-n2ncc3c2ncn2nc(-c4ccco4)nc32)cc1
    -25%	i	-0.62
- Cc1ccc(C(C(=O)NC2CCCCC2)N2CCCC2)cc1 (stereo not given)
    -6.4%	i	-1.5
- O=C(Nc1ccncc1)c1cc(F)cc(F)c1
    3.6%	i	x
- c1ccc(-c2cn3c(n2)CCC3)cc1
    0.7%	i	x
- O=C(Cc1cccc2ccccc12)Nc1ccccc1C(=O)O
    2.1%	i	x
- O=C(Cc1ccccc1)Nc1ccc2oc(-c3ccncc3)nc2c1
    -1.6%	i	-0.81
- CC(=O)c1cccc(NC(=O)NC(C)c2ccncc2)c1 (stereo not given)
    -1.9%	i	0.55
- CCOC(=O)CNC(=O)CSc1nc(N(C)C)nc(N2CCOCC2)n1
    -2.9%	i	1.4
- O=C(Cn1nnc2ccccc2c1=O)Nc1cc(C(F)(F)F)ccc1N1CCOCC1
    -4.5%	i	0.42
